TRPML1 ag: agonists of human TRPML1 channel. Q9GZU1. TRPML1-expressing cells, Ca2+ dye fluorescence, FDSS; host cell line not named in the record; reference of the full effect not given here. activation, % (concentration not given with the values). 0.12% of 410,000 active. AID 624414; in the data active = activation above about 50%; inconclusive = about 30% to 50%; inactive = below about 30%; note: 0% is about no effect; the text of the record puts the active cut at 80%
Target sequence (Q9GZU1 whole entry, looked up): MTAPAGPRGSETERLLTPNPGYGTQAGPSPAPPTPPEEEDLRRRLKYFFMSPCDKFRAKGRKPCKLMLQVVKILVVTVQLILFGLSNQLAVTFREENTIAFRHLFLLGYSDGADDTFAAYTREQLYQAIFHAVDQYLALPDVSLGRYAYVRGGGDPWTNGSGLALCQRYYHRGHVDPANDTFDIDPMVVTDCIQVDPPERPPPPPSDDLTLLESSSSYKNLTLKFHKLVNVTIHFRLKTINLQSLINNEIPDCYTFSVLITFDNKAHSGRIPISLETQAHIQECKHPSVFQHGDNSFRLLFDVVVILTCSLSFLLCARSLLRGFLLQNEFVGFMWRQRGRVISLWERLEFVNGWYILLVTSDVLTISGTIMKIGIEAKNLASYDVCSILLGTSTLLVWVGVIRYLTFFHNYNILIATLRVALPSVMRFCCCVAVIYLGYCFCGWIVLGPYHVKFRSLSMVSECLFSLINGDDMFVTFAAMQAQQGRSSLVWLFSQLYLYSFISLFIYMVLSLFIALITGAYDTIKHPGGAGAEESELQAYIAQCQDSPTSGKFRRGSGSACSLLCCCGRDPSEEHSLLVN
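Kinetic FDSS Ca2+ read in Tet-induced TRPML1-DL cells (ABD Ca8 dye plus quencher, 45-90 min RT loading): baseline, then compound, then 110 s agonist window; EC80 agonist 54-4 at 4uM final added afterwards for a 110 s antagonist window.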
D2 ag: agonists of human D2 dopamine receptor (beta-arrestin). P14416. DiscoveRx PathHunter D2 beta-arrestin, luminescence, 90 min; 100% = 57 uM dopamine signal. activation, % (concentration not given with the values). 0.084% of 360,000 active. AID 624465; in the data active = activation above about 40%; inconclusive = about 15% to 40%; inactive = below about 15%; note: compound concentration not given in the record; the text of the record calls up to 30% inactive
Target sequence (P14416 whole entry, looked up): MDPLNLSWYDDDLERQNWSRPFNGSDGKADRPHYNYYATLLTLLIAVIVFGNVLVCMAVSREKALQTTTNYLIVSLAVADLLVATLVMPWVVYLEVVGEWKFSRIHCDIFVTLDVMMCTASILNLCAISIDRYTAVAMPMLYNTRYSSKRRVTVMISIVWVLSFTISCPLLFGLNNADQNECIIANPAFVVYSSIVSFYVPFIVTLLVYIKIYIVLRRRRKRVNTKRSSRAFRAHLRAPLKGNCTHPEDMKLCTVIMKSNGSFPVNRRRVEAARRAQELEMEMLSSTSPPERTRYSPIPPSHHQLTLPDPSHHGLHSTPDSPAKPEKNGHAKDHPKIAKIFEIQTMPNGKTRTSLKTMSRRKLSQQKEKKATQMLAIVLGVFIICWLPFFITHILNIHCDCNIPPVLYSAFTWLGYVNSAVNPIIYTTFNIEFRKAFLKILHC
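Agonist mode: compounds alone added to overnight-plated D2 PathHunter cells for 90 min at 37 C, with 57 uM final dopamine (EC100) defining full response. Beta-arrestin recruitment detected by chemiluminescent reagent, read after 1 h at ambient temperature.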
PINK1 expr mod: modulators of PINK1 expression; PINK1 immunofluorescence, high-content cytometry, 24 h; Potency, µM (top dose mostly 76.6 µM), for the others: at the highest dose activation (PINK1 increase), most hits filed as activators; 0.2% of 410,000 active; active = well fitted activation curve with a large enough effect; inconclusive = small, poorly fitted or top-dose-only effect; inactive = flat fitted curve, though single readings scatter; cell line not stated here;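 note: potency is the fitted concentration of half-maximal effect; % of control where 0% means no effect; nearly all actives have a fitted effect of over 65% in size; a mitochondrial uncoupler was the plate control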
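Stable cell line, 250 cells/well, 12 h attachment; compounds pinned at 5 concentrations, 24 h; CCCP control. Fixed with nuclear dye, primary antibodies 12 h at 10 degrees C, secondary plus cell stain; laser-scanning cytometer read.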
TRPML1 inh: human mucolipin-1 channel inhibition; TRPML1-inducible cells, Ca2+ dye fluorescence, FDSS; active compounds read low; inhibition of EC80 agonist-evoked calcium signal; 0.02% of 390,000 active; activity change, negative = inhibition, % (test concentration not listed); Q9GZU1; in the data active means activity change below about -50%; inconclusive means about -30% to -50%; inactive means above about -30%;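 note: stimulus is agonist 54-4 at its EC80 concentration; % is set by controls: 0 for no effect and ±100 for the full control effect; compound concentration not given in the record; the text of the record puts the active cut at -80%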
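TRPML1-DL cells, Tet-induced overnight (~16 h, 37 °C) at 1,500 cells/well, were loaded with Ca8 no-wash dye plus quencher for 45-90 min at room temperature. Compounds were pinned during FDSS kinetic reading; agonist 54-4 at EC80 (4 uM final) then added.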
CtBP-E1A blk: CtBP/E1A binding inhibition; 0.49% of 340,000 active; activity change, % (test concentration not listed); AlphaScreen GST-E1A/His-CtBP binding, 1536-well; active compounds read low; control for the full effect not named in the record; in the data active means activity change below about -65%; inconclusive means about -30% to -65%; inactive means above about -30%; note: % is set by controls: 0 for no effect and ±100 for the full control effect
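In 5 uL wells, 23 nL compound meets equimolar GST-E1A and His-CtBP (5X stock 125 nM each) for 2 h, 37 °C. Beads (5X, 50 ug/mL) then 1 h, 37 °C, dark.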
Six1-Eya2 blk: inhibitors of human Six1/Eya2 interaction; Q15475+O00167; AlphaScreen GST-Six1/His-Eya2 binding, biochemical; active compounds read low; control for the full effect not named in the record; activity change, % (test concentration not listed); 0.56% of 360,000 active; in the data active = activity change below about -65%; inconclusive = about -30% to -65%; inactive = above about -30%; note: % is set by controls: 0 for no effect and ±100 for the full control effect
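AlphaScreen with GST-Six1 and His-Eya2 (5X mix: 250 nM and 500 nM), glutathione donor and nickel acceptor beads; buffer 50 mM Tris pH 8.0, 300 mM NaCl, 1 mM TCEP; 1 h at 37 C in the dark.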
The depositor's hits bear a star; ? = inconclusive; / = not tested or not shown; [ ] = another dose, or the depositor's remark.

SMILES	TRPML1 ag	D2 ag	PINK1 expr mod	TRPML1 inh	CtBP-E1A blk	Six1-Eya2 blk
O=C(NCC(=O)N1CCN(c2ccccc2O)CC1)c1ccc2c(c1)OCO2	-0.4	-1.1	-1.6%	17.5	-8.1	-1.1
CC(Oc1ccc(F)cc1)C(=O)Nc1ccc2ccccc2c1 (stereo not drawn)	0.4	-3.2	6.8%	0.1	4.4	9.2
COc1ccccc1C(=O)Nn1c(C)nc2ccccc2c1=O	-0.8	-3.0	1.9%	-13.1	-1.1	12.5
COc1ccc(/C=N/n2nnnc2N)cc1OC	-0.4	-1.3	-0.9%	-0.6	1.7	-0.6
CCOC(=O)[C@H]1[C@H]2COc3cc(OC)ccc3[C@@H]2N2C(=O)c3ccc(F)cc3NC(=O)[C@@]12C	0.5	-0.2	1.6%	37.0	-3.1	1.7
CC(=O)c1cccc(NC(=O)c2ccc3nc(Cc4ccccc4)oc3c2)c1	2.7	/	1.7%	28.5	/	/
Cc1cc(C)c2c(c1C)C(=O)CCC2	-0.5	-4.3	10.1%	18.1	3.9	3.4
COc1ccc(N2CCN(C(=O)CS(=O)(=O)c3cccc4nsnc34)CC2)cc1	1.7	/	-0.6%	-1.7	/	/
O=C(CSc1cn[nH]n1)Nc1ccc(O)c(C(=O)O)c1	0.8	0.4	2.8%	24.6	-1.3	5.1
CC(=O)N1CCc2c(sc3c2c(=O)n(-c2ccccc2Cl)c(=O)n3C)C1	0.2	/	1.5%	3.5	/	/
COc1cc(C(=O)Nc2cc(C)ccc2C)ccc1OCc1c(C)noc1C	2.7	-5.8	11.6%	13.0	-16.5	-14.1
COC(=O)C(NC(=O)CCC(=O)NC(C(=O)OC)c1ccccc1)c1ccccc1 (stereo not drawn)	-0.3	-0.7	0.5%	-11.7	4.3	1.4
COc1ccc(OC)c(CNC(=O)c2cc3ccc4cccnc4c3[nH]2)c1	1.3	/	0.8%	3.4	/	/
CC(OC(=O)CCC(=O)c1cccs1)C(=O)Nc1ccccc1[N+](=O)[O-] (stereo not drawn)	0.4	-1.7	0.1%	1.8	-5.3	-2.7
Cc1ccc(S(=O)(=O)[N-]c2nc3ccccc3nc2-n2cc[n+](Cc3ccccc3)c2)cc1	-0.3	-4.1	-0.1%	0.5	-0.8	3.1
Cc1cc(N/N=C/c2ccc(F)cc2)nc(NCc2ccccc2)n1	2.2	2.2	4.1%	27.5	0.7	2.4
C=CCOc1ccc(C[C@H](N)C(=O)NC[C@H]2O[C@@H](n3ccc(N)nc3=O)[C@H](O)[C@@H]2O)cc1	/	0.4	-0.5%	/	2.6	-1.0
Cc1cc(C)nc(SCC(=O)c2ccc(C)c(C)c2)n1	0.5	-5.7	0.4%	7.5	0.8	-2.1
CC1(C)N=C(N)NC(Nc2ccc(Br)cc2)=N1	-0.3	-4.6	0.5%	11.7	-9.7	-5.0
C[C@@H]1CN([C@H](C)CO)C(=O)CCCn2nncc2CO[C@H]1CN(C)C(=O)Nc1ccc(N2CCN(C)CC2)cc1	-0.5	-2.6	-2.2%	-15.5	-6.2	14.2

The final 2 entries of the part above open the next one.
SMILES	TRPML1 ag	D2 ag	PINK1 expr mod	TRPML1 inh	CtBP-E1A blk	Six1-Eya2 blk
CC1(C)N=C(N)NC(Nc2ccc(Br)cc2)=N1	-0.3	-4.6	0.5%	11.7	-9.7	-5.0
C[C@@H]1CN([C@H](C)CO)C(=O)CCCn2nncc2CO[C@H]1CN(C)C(=O)Nc1ccc(N2CCN(C)CC2)cc1	-0.5	-2.6	-2.2%	-15.5	-6.2	14.2
C=CCSc1nnc(-c2cnn(-c3ccccc3)c2-n2cccc2)n1C	-0.6	-2.7	-0.1%	1.2	1.3	1.2
O=C(c1ccc(CN2CCc3ccccc3C2)cc1)N1CCN(c2ccc(F)cc2)CC1	0.7	-3.4	3.9%	5.8	-12.5	-18.3
COc1ccc(NC(=O)Nc2nnc(SCC(=O)Nc3cccc(C)c3C)s2)cc1	1.7	/	0.2%	-12.7	/	/
CN1C=C(C(F)(F)F)C=C/C1=C(\C#N)c1nnc2n1CCCCC2	0.6	1.1	-0.7%[38.3 µM]	-13.7	4.0	-1.1
CCOC(=O)c1nnn(CC(=O)N2N=C(c3ccccc3)CC2c2ccccc2)c1C(=O)OCC (stereo not drawn)	4.0	-2.0	2.1%	8.5	-3.6	2.5
COc1cccc(COC(=O)c2cc(S(=O)(=O)N3CCOCC3)ccc2Cl)c1OC	1.0	2.5	2.4%	30.5	14.4	5.6
CCOC(=O)c1c(C)nc(-c2ccccc2)nc1N	-1.0	-2.1	-0.6%	-13.2	8.5	3.9
Cc1nc(/C=C\C(=O)O)c2cc(C)oc2n1	0.0	-4.2	-0.6%	42.1	-0.5	-1.0
Cc1cc2cc(CCNC(=O)c3ccc(C)c([N+](=O)[O-])c3)c(=O)[nH]c2cc1C	-1.6	-4.9	-0.1%	5.6	11.0	6.7
CCCC(=O)Oc1c(Sc2ccc(Cl)cc2)c(C)nn1-c1ccccc1	-0.6	/	1.6%	-14.2	/	/
Cc1cccc(CSc2nnc([C@@H]3CCCN3)o2)c1	0.3	2.1	1.2%	-15.6	3.8	-1.1
Cn1c(N)c(C(=O)COC(=O)C2CCCN2C(=O)c2cccs2)c(=O)n(C)c1=O (stereo not drawn)	0.6	-4.4	-0.3%	7.8	4.7	-0.8
COc1ccc(CC(=O)NNC(=S)Nc2ccccc2)cc1Cl	-0.8	-3.5	1.6%	14.2	-0.3	-2.8
O=C(CSc1nc(NS(=O)(=O)c2ccccc2)cc(=O)[nH]1)Nc1ccccc1Cl	-0.1	-2.6	-0.1%	10.0	-2.5	5.2
CCCC[C@@H]1CNC(=S)N1CCc1cccc2ccccc12	1.8	-2.7	7.1%	-0.5	-2.9	-5.6
CCN(CC)CCN(Cc1cc2cc3c(cc2[nH]c1=O)OCO3)C(=S)NCCOC	0.2	-5.4	0.1%	26.0	0.0	3.6
CCN(C(=O)c1sc2nc3n(c(=O)c2c1C)CCCCC3)c1ccccc1F	-0.1	/	-1.8%	-8.1	/	/
CCN(CC)C(=O)Oc1ccc(NC(C)=O)cc1	-0.7	-4.1	-19.9%[38.3 µM]	14.1	3.2	3.5
COc1ccccc1NC(=O)COC(=O)CN1C(=O)C(=O)c2ccccc21	-0.3	-16.2	1.1%	-8.4	10.5	2.7
Cc1ccc2nc(-c3ccc(NC(=O)CSc4nccc(=O)[nH]4)cc3)sc2c1	-0.1	-5.4	1.2%	-3.7	-16.5	-8.1

Continued, starting with the last 3 of the part before.
SMILES	TRPML1 ag	D2 ag	PINK1 expr mod	TRPML1 inh	CtBP-E1A blk	Six1-Eya2 blk
CCN(CC)C(=O)Oc1ccc(NC(C)=O)cc1	-0.7	-4.1	-19.9%[38.3 µM]	14.1	3.2	3.5
COc1ccccc1NC(=O)COC(=O)CN1C(=O)C(=O)c2ccccc21	-0.3	-16.2	1.1%	-8.4	10.5	2.7
Cc1ccc2nc(-c3ccc(NC(=O)CSc4nccc(=O)[nH]4)cc3)sc2c1	-0.1	-5.4	1.2%	-3.7	-16.5	-8.1
CCOc1ccc(-c2c(C(=O)N/N=C/c3ccc(C)cc3)nnn2-c2nonc2N)cc1	1.3	4.9	0.4%	-14.9	/	-1.9
Cc1ccc(C)c(S(=O)(=O)N2CCN(C(=O)CCNS(=O)(=O)c3ccc(C)c(C)c3)CC2)c1	-0.8	2.4	-0.4%	2.3	0.9	-3.3
CCc1ccccc1NC(=O)c1ccc2nc(N3CCOCC3)sc2c1	-0.3	-5.3	8.8%	-12.9	-18.7	7.4
CCOC(=O)C(Cc1ccccc1)c1ccnc2ncnn12 (stereo not drawn)	-0.1	0.7	2.6%	-14.1	1.2	-3.0
C=C1C[C@H](O[C@@H]2O[C@H](CO)[C@@H](O)[C@H](O)[C@H]2O)[C@@H]2[C@H](OC(=O)[C@H]2C)[C@H]2[C@H](C)[C@H](O)C[C@@H]12	-0.6	-1.7	1.2%	7.0	2.0	0.9
CC(=O)N/C(=C\c1ccc(C)o1)C(=O)NCc1ccccc1	0.5	-7.0	-0.9%	19.9	-3.7	-5.1
Clc1ccccc1N/N=C/c1ccc2c(c1)OCO2	0.4	-3.6	?	-13.1	4.6	-2.4
COc1cccc(CN(C)C(=O)CSCC(=O)Nc2cc(C)on2)c1OC	0.5	-3.4	-1.0%	0.8	4.1	-2.0
O=C(Cn1nc(-c2ccc(Cl)cc2)c2ccccc2c1=O)Nc1cccc(C(F)(F)F)c1	1.5	/	1.0%	14.0	/	/
COc1ccc(Br)cc1/C=c1\sc2nc(-c3ccco3)nn2c1=O	0.3	-2.3	-0.5%	1.8	-2.1	-23.6
CCc1ccc(NC(=O)c2ccccc2NC(=O)C2CCCO2)cc1 (stereo not drawn)	1.9	-0.8	-4.1%[38.3 µM]	30.8	-22.7	-2.5
COc1cccc(C(=O)NCC(=O)N/N=C/c2cccc(OC(=O)c3ccc([N+](=O)[O-])cc3)c2)c1	0.7	4.2	3.8%	-6.9	9.6	-3.6
Cc1nc(SCC(=O)Nc2cccnc2Cl)nc(C)c1C	0.4	1.6	2.0%	6.7	1.7	-24.9
COc1ccc2[nH]c3c(c2c1)CCN1C(=O)C(CC(=O)NCCCN(C)C)C[C@H](C(=O)N2CCOCC2)[C@@]31CCC1CCCC1 (stereo partly drawn)	-1.2	-1.3	1.2%	0.5	3.3	-0.5
CCOC(=O)C1CCCN(CC(=O)Nc2c(C(=O)OC)[nH]c3ccc(Br)cc23)C1 (stereo not drawn)	-0.4	-2.7	0.0%	1.9	1.2	-11.8
Cc1nn(-c2ccccc2)cc1C(=S)Nc1ccccc1	-0.5	-1.3	0.7%	18.3	-2.5	-4.8
COc1ccc(C2CN=NC23CCc2ccccc2C3=O)cc1 (stereo not drawn)	-0.5	-1.6	2.7%	1.8	/	35.1
CCCCn1c(SCC(=O)NC2CC(C)(C)NC(C)(C)C2)nc2cc(S(N)(=O)=O)ccc21	0.2	-2.2	0.0%	25.7	-1.2	-0.4
O=C(NCc1cccc(Cl)c1)c1ccc(-c2cccnc2)c2ccoc12	1.8	4.2	-1.1%	51.8	-11.6	-11.3
COc1ccc(S(=O)(=O)N2CCCC(C(=O)NCCN3CCOCC3)C2)cc1C (stereo not drawn)	-0.8	-6.6	1.8%	0.8	6.8	-5.1
O=c1oc2ccccc2n1CSC1=NCCS1	-0.3	-5.1	2.4%	-14.3	9.0	6.1
O=C(CN1CCN(Cc2ccccc2)CC1)N1CCCCCC1	0.8	-6.1	-0.6%	1.5	2.5	8.5
CC1C(=O)N(Cc2ccccc2)c2ccccc2N1C(=O)c1ccccc1 (stereo not drawn)	2.9	2.1	0.7%	2.5	0.0	11.7
Cc1oc(-c2ccc(Cl)cc2)nc1CS(=O)CC(=O)NCCCN1CCCC(C)C1 (stereo not drawn)	-1.2	-3.9	-0.8%	-1.9	0.8	2.7
COCCOC(=O)c1c(C)oc2c1cc(NS(=O)(=O)c1ccc(Cl)c(C)c1)c1ccccc12	0.5	/	6.5%	6.6	/	/
Cc1ccc(S(=O)(=O)Nc2cccc(CP(=O)(c3ccccc3)c3ccccc3)c2)cc1	0.6	7.1	-1.4%	5.4	2.0	4.8
